Screening results: PubChem, several laboratories
A1 inh: inhibitors of the anti-apoptotic protein A1, read as caspase activation | MEF A1-2A-BIM cells, Caspase-Glo 3/7 luminescence, 3 h; percent of clofoctol response, vehicle zero | 330,000 compounds, 0.066% hits | caspase activation, % (no concentration beside the values) | AID 2462;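 active = over half of replicate activation scores above 10%, or exactly half above 10 with the replicate mean above 10; inconclusive = replicate mean below 10 yet half the replicates above 10; inactive = over half of replicates below 10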;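 note: wells of about 30 µL received 50 nL stock; many hits fall short of the cut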
ALR H2O2 inh: inhibitors of human sulfhydryl oxidase ALR | P55789 | inhibition, % (concentration not given with the values) | purified ALR, DTT oxidation, H2O2 HRP-luminol luminescence | 290,000 compounds, 3.8% hits;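 active = mean and each replicate at 75% or more; inconclusive = only one of the two met; inactive = neither met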;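 note: stock transfer was 7.5 nL into about 7.5 µL; 0% = neutral wells and 100% = wells with inactivated enzyme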
Target sequence (P55789 whole entry, looked up): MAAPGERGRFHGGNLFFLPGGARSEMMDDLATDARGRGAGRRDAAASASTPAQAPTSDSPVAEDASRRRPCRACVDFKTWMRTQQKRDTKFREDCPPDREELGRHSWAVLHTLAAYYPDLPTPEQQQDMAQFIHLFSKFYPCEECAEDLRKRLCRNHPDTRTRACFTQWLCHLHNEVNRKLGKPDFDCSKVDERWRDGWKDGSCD
LANA-H2B inh: blocks KSHV LANA binding to histone H2A/H2B; 320,000 compounds, 0.6% hits; cell-free LANA-H2A/H2B peptide, fluorescence polarization; inhibition, % (no concentration beside the values); AID 2629; in the data active = inhibition mostly above about 10%, no sharp cut-off; inactive = mostly below about 6.7%;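 note: stock transfer was 7.5 nL into about 10 µL; 0% = median of vehicle wells and 100% = median of positive control wells; one replicate is shown; the record names a cut of 25% in any replicate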
Calb FLC: C. albicans growth modulation with fluconazole. 300,000 compounds, 0.57% hits. growth inhibition, % (test concentration not listed). C. albicans CaCi-2 (fluconazole-resistant clinical isolate) + fluconazole, Alamar Blue growth, 48 h. AID 1979;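 active = most replicates above 75%; inconclusive = exactly half above 75%; inactive = most below 75%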;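 note: all wells also contain fluconazole at 8 µg/ml as a sub-toxic cotreatment; 0% = median of DMSO wells and 100% = median of geldanamycin control wells; wells of about 8 µL received 7.5 nL stock; the first replicate is given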
Beta2AR agonist: human beta-2 adrenergic receptor agonism by FAP; P07550; Am2.2-beta2AR cells, FAP receptor internalization, flow cytometry; reference of the scale not given here; response, % (no concentration beside the values); 340,000 compounds, 0.43% hits;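 active = response above a set limit, near 3 SD of response in nonfluorescent compounds, cut at about 42% in these data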;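 note: stock transfer was 100 nL into about 11 µL; a reference agonist was the positive control; negative values mostly stem from fluorescent compounds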
Target sequence (P07550 whole entry, looked up): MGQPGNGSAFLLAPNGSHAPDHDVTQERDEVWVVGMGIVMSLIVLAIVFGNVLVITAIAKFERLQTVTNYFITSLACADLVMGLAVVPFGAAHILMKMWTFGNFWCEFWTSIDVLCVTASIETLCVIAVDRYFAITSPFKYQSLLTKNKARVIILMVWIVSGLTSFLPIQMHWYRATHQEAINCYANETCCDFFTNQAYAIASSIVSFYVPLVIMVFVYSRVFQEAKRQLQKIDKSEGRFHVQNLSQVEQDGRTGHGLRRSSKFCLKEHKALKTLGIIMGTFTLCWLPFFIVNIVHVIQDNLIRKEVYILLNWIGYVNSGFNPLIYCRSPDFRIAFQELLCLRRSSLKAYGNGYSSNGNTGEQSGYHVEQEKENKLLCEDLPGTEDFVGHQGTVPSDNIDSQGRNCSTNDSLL
T cruzi repl: T. cruzi replication inhibition; T. cruzi beta-gal in NIH3T3, luminescence, 90 h; inhibition, % (no concentration beside the values); 300,000 compounds, 1.4% hits; AID 1885;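 active = mean inhibition across valid replicates above about 55%, limit read from the data; inconclusive = mean below that limit but half or more replicates reach it; inactive = mean below it, under half of replicates reach it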;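 note: signal also drops with host cell toxicity which is not excluded here; 0% = plate median of DMSO wells and 100% = zero luminescence signal; higher percent means less beta-gal luminescence so fewer parasites; stock transfer was 50 nL into about 50 µL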
Beta apoptosis: blocks beta cell apoptosis; INS-1E cytokine-induced death, ATP luminescence, 48 h; percent of positive-control rescue, neutral wells zero; protection from apoptosis, % (test concentration not listed); 300,000 compounds, 0.8% hits; AID 435005;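 active = all replicates at 75% or more, or half of them and the mean; inconclusive = half reach 75% but not the mean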;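 note: 0% = cytokine-treated negative control wells and 100% = positive control rescue; higher means more ATP so stronger rescue from cytokine killing; wells of about 40 µL received 100 nL stock; the first replicate is given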
rRNA inh HTS: inhibitors of bacterial rRNA selective over humanized ribosomes | AID 720706 | E. coli WT GFP vs humanized-ribosome RFP mutants, fluorescence, 24 h; active compounds read low; DMSO median 0, no signal -100 | 350,000 compounds, 1.6% hits | GFP signal change (wild-type ribosome), % (concentration not given with the values);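 active = significant combined selectivity score with lowered wild-type GFP, culture density cut under 30%, mutant RFP and density less affected; inactive = any of these conditions unmet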; note: one replicate is shown; some compounds called inactive have numbers as strong as hits
rRNA inh HTS OD600: further read-out of rRNA inh HTS, marked with its call; OD600 change, %; measured here: OD600 growth;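 optical density of the mix in the first replicate; 0 = DMSO median and -100 = no signal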
rRNA inh HTS RFP: recorded beside rRNA inh HTS, whose call it bears; RFP signal change, %; measured here: RFP humanized mutant strains;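 first replicate; 0 = DMSO median and -100 = no signal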
* = called active by the depositor; ? = inconclusive; nt = not tested or not shown. An excerpt; rates above refer to the full screens.

Values in the order: T cruzi repl	LANA-H2B inh	rRNA inh HTS	rRNA inh HTS OD600	Calb FLC	Beta apoptosis	A1 inh	ALR H2O2 inh	rRNA inh HTS RFP	Beta2AR agonist
COn1c(-c2ccc(Cl)cc2Cl)nc2ncccc21
 : -2.9	-12.0	-8.8	-4.2	45.4	-0.9	1.0	-3.0	-3.8	-8.1
Cc1nn(-c2nnc(NCc3ccccc3)nn2)c(C)c1Br
 : -0.7	5.8	nt	nt	1.7	24.2	0.7	-45.0	nt	-4.7
O=C(N/N=C\c1cccnc1)c1cc(-c2ccccc2)nc2c(Cl)cccc12
 : 7.5	-1.8	19.4	9.4	-1.9	-9.8	0.5	-0.6	1.5	-11.3
Cc1ccc2nc(N3CCN(c4ccccc4)CC3)c(C=O)c(=O)n2c1
 : 13.7	-7.2	7.4	3.7	?	-0.9	-0.6	1.0	2.9	-1.2
Cc1cc(S(=O)(=O)Nc2c(C)nn(C)c2C)c(Cl)cc1Cl
 : nt	-5.3	-6.4	-8.6	-9.7	3.2	0.5	-3.7	-2.1	-7.8
O=C(NC1CCCC1)c1ccc(Br)o1
 : -5.6	-2.0	nt	nt	-0.1	-2.1	-0.8	5.5	nt	-3.9
N=c1c2c3c(sc2nc2n1CCCCC2)CCCCC3
 : nt	1.7	nt	nt	nt	1.9	-1.0	-11.2	nt	-6.3
c1ccc(CC2CCN(Cc3ccccn3)CC2)cc1
 : -7.5	-2.1	14.5	-0.4	-4.3	-2.6	1.3	-1.9	0.6	-2.8
CCN(CC)S(=O)(=O)c1ccc(Cl)c(C(=O)NC2CCN(Cc3ccccc3)CC2)c1
 : 50.7	-0.5	1.2	6.4	-4.0	nt	-0.1	-6.6	2.1	-0.2
COc1ccc(S(=O)(=O)Nc2cc(C)cc(C)n2)c2ccccc12
 : 0.5	2.6	nt	nt	?	-3.3	-0.2	-2.7	nt	6.4
COc1ccc(NC(=O)c2ccc(NC(=O)c3cccs3)cc2)cc1
 : -1.7	0.1	2.3	-0.1	5.1	19.4	-1.2	22.5	-2.9	-5.7
CCn1c(CNC(=O)c2ccco2)nnc1SCC(=O)Nc1cccc(F)c1
 : 0.0	-3.2	1.9	7.8	-0.9	-2.6	0.0	-1.0	0.8	-6.7
Cc1ccc(-n2c(=O)cc(N3CCN(C(=O)c4ccco4)CC3)[nH]c2=O)cc1
 : -2.2	-5.5	11.1	10.2	-1.9	0.5	1.4	6.6	3.5	5.7
COC(=O)c1ccc(CN2C(=O)NC3(CCCc4ccccc43)C2=O)o1 (configuration not stated)
 : -2.8	3.9	nt	nt	-7.0	-3.7	-0.4	-10.5	nt	3.2
C[C@H](NC(=O)c1ccco1)C(=O)Nc1nnc(SCc2ccccc2)s1
 : nt	-3.4	1.1	-42.0	nt	-3.1	0.2	15.8	-5.6	1.7
COc1ccc(S(=O)(=O)n2nc(OC(C)=O)cc2N(C(C)=O)C(C)=O)cc1
 : -20.5	-3.7	26.1	-0.6	-14.0	-7.1	-0.6	12.1	-3.5	0.4
CC(Cc1ccccc1)NC(=O)C1CCCNC1=O (configuration not stated)
 : -12.7	3.3	0.8	7.5	-1.0	nt	1.1	-0.4	-4.1	-1.8
CCCCc1c(O)nc(SCC(=O)N2CCCCCC2)[nH]c1=O
 : 0.7	4.2	3.4	4.3	7.6	-4.7	-0.2	16.6	-1.5	3.5
O=S(=O)(c1cccc(Br)c1)N1CCN(CCc2ccccc2)CC1
 : 50.1	-2.3	-8.2	-29.1	-1.7	4.4	0.1	-3.8	-0.2	3.4
N#C/C(C(=O)NCc1ccco1)=C1/SC=C(c2ccccc2)N1c1ccccc1
 : 4.8	3.4	nt	nt	7.8	1.7	-0.3	26.0	nt	-3.2
O=C(Nc1cc2c(cc1Br)OCCO2)c1cccs1
 : 0.7	2.1	nt	nt	4.6	-2.8	-3.9	3.6	nt	-8.3
Cc1ccc(C(=O)NNC(=O)Cn2ccc(C(F)(F)F)n2)o1
 : -4.3	2.0	11.7	21.2	15.6	1.1	-0.3	-4.8	0.9	3.1
CC(=O)Nc1cccc(NC(=O)c2cccc(-c3ccc(O)cc3)c2)c1
 : -10.2	-1.9	-16.5	-27.6	-3.9	6.0	-0.2	98.5*	1.5	18.4
CCCn1nnc(NC(=O)COc2ccc(C3CCCCC3)cc2)n1
 : -21.3	-5.7	-18.6	-23.0	24.9	-2.7	-1.3	-2.1	-4.1	8.3
N#CC1=C(N)OC2=C(C(=O)CCC2)C1C1CC=CCC1 (configuration not stated)
 : -14.2	6.8	nt	nt	-11.5	-4.1	0.3	4.2	nt	6.2
Cc1c(NC(=O)C(C)OC(=O)CC2CC3CCC2C3)c(=O)n(-c2ccccc2)n1C (configuration not stated)
 : -1.9	0.0	-1.9	0.8	11.8	-1.6	0.2	0.4	-0.7	-2.4
CN(c1ncnc(N)c1[N+](=O)[O-])C1CCS(=O)(=O)C1 (configuration not stated)
 : -24.3	-2.4	19.9	19.5	-7.4	-8.1	1.1	-5.3	-1.2	1.6
Oc1ccc2ccccc2c1C=NCc1ccccc1
 : -13.0	3.8	91.2	4.9	18.6	-11.6	1.2	-6.2	51.0	8.7
Cc1ccccc1NC(=O)C1C2CCC(O2)C1C(=O)O (configuration not stated)
 : -5.4	0.2	nt	nt	-2.0	-3.0	0.0	2.3	nt	-0.3
CNC(=O)CCCCCNS(=O)(=O)c1ccc(C)cc1
 : -6.9	2.8	nt	nt	-1.6	-5.4	0.0	-1.9	nt	-4.3
CSc1nnc(C(C)(C)C)c(=O)n1/N=C/c1ccc(Cl)cc1
 : -2.7	1.9	21.7	11.1	-4.4	-5.7	0.9	-0.9	0.7	-1.9
CCc1cc(C(=O)N(CC(C)C)c2c(N)n(Cc3ccccc3)c(=O)[nH]c2=O)sc1C
 : -1.0	-6.6	2.9	5.4	-6.2	nt	1.8	0.3	0.6	-0.7
O=C(O)COCC(=O)Nc1ccccc1-c1ccccc1
 : -18.5	6.6	11.4	9.6	-2.6	-7.8	0.3	-11.5	1.2	2.8
CC(OC(=O)CCC(=O)c1ccc(Cl)s1)C(=O)NC1(C#N)CCCCC1 (configuration not stated)
 : nt	-1.0	0.4	3.5	nt	0.5	-0.6	1.1	-2.3	-6.1
CCOC(=O)[C@H]1[C@H]2COc3ccc(OC)cc3[C@@H]2N2C(=O)CN(Cc3ccc(OC)cc3)C(=O)[C@@]12C
 : nt	2.1	0.2	-1.4	nt	-14.8	-0.1	4.6	6.4	-2.8
COc1ccccc1CNC(=O)COc1ccccc1C
 : 14.3	-0.2	1.9	0.2	-8.8	3.4	0.5	5.4	1.4	8.2
CC(CNC(=O)c1ccc(-c2ccccc2)cc1)CN(C)C (configuration not stated)
 : 3.6	-0.1	nt	nt	-2.7	0.4	1.0	-17.5	nt	1.4
O=C(Nc1ccc2ccccc2c1)/C(=C\c1ccc2c(c1)OCO2)NC(=O)c1ccco1
 : 4.9	3.1	nt	nt	6.0	-8.0	-0.1	-2.1	nt	1.0
O=C(Nc1cc(C(F)(F)F)ccc1N1CCOCC1)c1ccccc1F
 : 3.1	-6.7	nt	nt	1.3	-7.2	0.2	nt	nt	-14.1
COc1ccc(CCNC(=O)COC(=O)Cc2ccc(OC)cc2)cc1
 : -0.2	-2.1	nt	nt	0.8	nt	0.4	-3.9	nt	-2.4
Cc1cccc(C)c1N(CC(=O)N/N=C/c1cc(Br)c(C)o1)S(C)(=O)=O
 : -7.5	6.9	0.7	-0.1	-0.3	-1.1	-2.6	-2.6	-0.5	4.4
Cc1ccc2nc(-c3cc(N)cc(N)c3)oc2c1
 : 1.2	-1.7	nt	nt	-5.3	2.7	-6.2	-3.0	nt	2.9
Cc1ccc(S(=O)(=O)CCN2CCN(c3ccccn3)CC2)cc1
 : 18.7	-14.5	-13.2	-15.0	-6.0	-6.8	-0.6	-6.3	-1.2	-5.2
COc1ccc(CCNC(=O)CCC(=O)N2CCN(S(=O)(=O)c3ccccc3)CC2)cc1OC
 : -9.7	-1.6	nt	nt	0.7	0.1	0.3	-4.2	nt	7.2
O=C(CN1C(=O)c2ccccc2S1(=O)=O)NCc1ccccc1
 : -3.9	-1.1	2.8	8.4	-0.4	0.4	-0.9	0.9	6.1	-3.1
CNC(=O)c1ccc(-c2cc(C(F)(F)F)nn2C)s1
 : -1.2	0.0	-2.9	-11.5	-2.1	2.5	-0.6	-2.2	0.9	-10.7
COC(=O)c1cn(NC(=O)/C=C/c2cccc(OC)c2OC)c(=O)c2ccccc12
 : -9.1	1.1	12.2	14.9	0.6	1.0	-0.9	-4.6	-0.9	nt
CC(C)Nc1ccc(Nc2ccnc3cc4ccccc4cc23)cc1
 : 57.8*	-1.9	-60.5	-80.8	-0.5	125.3*	-0.8	99.2*	-28.9	80.5*
O=C(NCC[C@@H]1C[C@@H]2C=C[C@H]1C2)c1cc(COc2ccc(F)cc2F)on1
 : 16.1	-0.9	-14.2	-7.7	-6.6	-2.0	0.7	nt	-1.2	7.6
Cc1ccc(CN2CCN(Cc3ccc(Oc4ncccn4)cc3)CC2CCO)cc1 (configuration not stated)
 : 5.0	1.3	7.4	1.8	-2.0	-1.1	0.0	1.1	-2.8	-9.2
FC(F)(F)c1ccc(Oc2ccccc2Cl)nc1
 : -12.5	4.6	7.9	8.4	-18.4	1.9	-0.2	-1.9	2.3	6.6
CCc1ncc(CN2CCCC(C(=O)Nc3cccc(-c4ccc(F)cc4)c3)C2)cn1 (configuration not stated)
 : 13.4	2.5	-26.2	-24.9	7.8	-3.9	0.9	-5.0	-3.4	-16.9
CC(=O)c1cnc2nc(SCc3ccc(Cl)cc3)nn2c1C
 : 10.8	-3.9	-35.5	-36.1	1.2	-0.3	0.7	-1.8	-4.7	-4.8
NS(=O)(=O)c1ccc2nc(NC(=O)c3ccncc3)sc2c1
 : -3.3	2.3	-7.3	0.7	-4.2	nt	?	-6.7	-7.9	-5.2
O=C(Cc1ccccc1)NCCc1cn2ccsc2n1
 : -13.2	-2.9	-2.0	4.3	-14.3	0.5	0.2	-42.8	-1.1	1.1
CCN1CCN(c2cc(C(C)(C)C)nc3c(-c4ccccc4)c(C)nn23)CC1
 : 49.8	-2.0	nt	nt	21.2	64.2	0.2	7.0	nt	13.5
COc1cccc(CNC(=O)Cn2ccc3cc(S(=O)(=O)N4CCC(C)CC4)ccc32)c1
 : 19.2	0.1	3.4	1.7	-9.8	-3.1	1.0	-11.9	-2.2	-16.5
Cc1cc(C)n(S(=O)(=O)c2cccc([N+](=O)[O-])c2)n1
 : 19.3	1.3	5.5	9.1	-0.2	-6.1	1.0	-20.0	1.6	-5.7
COC(=O)Cc1c(C)c2ccc(OCc3nn[nH]n3)cc2oc1=O
 : -2.8	2.3	nt	nt	-2.1	-6.6	-0.7	-1.7	nt	-5.8
O=[N+]([O-])c1cc(C2Nc3cccc4cccc(c34)N2)ccc1Cl
 : 17.8	2.4	nt	nt	12.7	9.4	0.2	5.4	nt	3.0
CCC(=O)Nc1cc(C)c(NC(=O)c2ccco2)cn1
 : 0.0	0.5	nt	nt	-3.5	-5.2	0.4	-10.6	nt	-2.2
